Autofluor counter: flagged as autofluorescent in microsphere protease counterscreen; fluorescence intensity (test concentration not listed); compound autofluorescence counterscreen, microsphere flow cytometry; hits give high values; 360,000 compounds, 3.1% hits; AID 624483;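 active = at least 3 SD above the mean of all compounds, about 16000 in these data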;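 also: 100 nL of 1 mM stock went into each well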
Active calls of the source: *. This is a subset (hit frequency here may not be typical).

SMILES	Autofluor counter
CC1(C(=O)NS(=O)(=O)Cc2cccc(Cl)c2)CCN1C(=O)CC1CCCC1 (stereo unspecified)	3818
Cc1c(N=O)c(-c2ccccc2)n(O)[n+]1[O-]	3972
CS(=O)(=O)c1ccc(Nc2nc(C(N)Cc3ccc(C(F)(F)F)cc3)cs2)cc1 (stereo unspecified)	3673
CC1(C(=O)NS(=O)(=O)c2ccccc2)CCN1C(=O)C1(c2ccc(Cl)cc2)CC1 (stereo unspecified)	3575
Cc1ccccc1NC(=O)Nc1nnc([C@@H]2C[C@H](O)[C@@H](CO)O2)s1	3004
Cc1ccc(S(=O)(=O)N2C[C@@H](C)[C@]3(C2)[C@H](O)[C@H](OC(=O)NC2CCCC2)C[C@H]2C(=O)N(c4ccccc4)C(=O)[C@H]23)cc1	4250
CCc1ccc2c(c1)NC(=O)C2(C)Cc1ccccc1OC (stereo unspecified)	2869
COc1ccc(-n2nnnc2C(c2ccnc3ccccc23)N2CCC(n3c(=O)[nH]c4ccccc43)CC2)cc1 (stereo unspecified)	5519
Fc1ccc(Nc2nnc(-c3ccncc3)s2)cc1Cl	3724
COc1ccccc1CNc1nc2cc(-c3ccc(OC)c(OC)c3)sc2c(=O)n1C	3745
CCc1nc2c(OCc3ccccc3C)cccn2c1N(C)C(=O)c1ccco1	3960
COC(=O)c1cccc(NC(=O)c2ccc(S(=O)(=O)N(C)c3ccccc3OC)cc2)c1	3800
Cc1c(C(=O)N(C)Cc2ccc(F)cc2)sc(=O)n1Cc1ccccc1C#N	4054
OC(c1ccc(Cl)c(Cl)c1)c1ncc(-c2ccccc2C(F)(F)F)[nH]1 (stereo unspecified)	4141
CCC/C=C/c1ccc(CN2C(CC(C)C)C(=O)N(Cc3cn(CC4CCCCC4)nn3)CCS2(=O)=O)cc1 (stereo unspecified)	3729
CCCCCC(=O)N1C[C@H](O)[C@@H](n2cc(-c3ccc(F)cc3)nn2)C[C@@H]1c1ccc(Cl)cc1	3511
CC1=CC(C)C(=O)N(C)C(C)=C1 (stereo unspecified)	3642
O=S1(=O)C=C[C@@H](COCc2ccccc2)N1Cc1ccc(Br)cc1	4532
COc1ccc(C2=Nc3ccccc3NC(=O)C2N(C(=O)c2cc3ccccc3[nH]2)c2ccccc2)cc1 (stereo unspecified)	6052
Cc1ccc(-n2nnnc2CNC(=O)C(=O)c2c[nH]c3ccccc23)cc1C	4107
CC(=O)NCC1(c2ccccc2)CCN(CC2COc3ccccc3O2)CC1 (stereo unspecified)	5561
CCCS(=O)(=O)NC(=O)C1(C)CCN(C(=O)c2cccnc2Oc2ccccc2)C1 (stereo unspecified)	3799
C[C@H](CO)N1C[C@H](C)[C@H](CN(C)Cc2cccc(C(F)(F)F)c2)OCc2ccccc2-c2c(n(C)c3ccccc23)C1=O	2879
CCc1ccc([C@@H]2CC(=O)[C@@H]3CN(S(=O)(=O)c4ccccc4)[C@H](c4ccc(OC)cc4)C[C@@H]3N2S(=O)(=O)c2ccc(C)cc2)cc1	5726
COC(=O)c1ccc(CNC(=O)c2ccccc2C(=O)NCC2(CBr)OCCO2)cc1	3649

More structures.
SMILES	Autofluor counter
O=C(NCc1cccnc1)c1cc(C2CCCN(C(=O)c3ccc4c(c3)CCO4)C2)on1 (stereo unspecified)	3842
CC(C(=O)N1CCCCC1)N(C)CC(=O)Nc1ccc(F)c(F)c1F (stereo unspecified)	3721
CC(C)NC(=O)c1csc([C@@H]2O[C@H](CO)[C@H](O)[C@H](O)[C@H]2O)n1	2890
O=C(OCc1cn([C@H]2CN(CC3CCCCC3)[C@@H](c3ccc(Cl)cc3)C[C@@H]2O)nn1)c1ccccc1	3027
O=C1C=CC(c2c[nH]c3ccccc23)CC1 (stereo unspecified)	4388
CCC(CO)Nc1ccn2nc(-c3ccccc3)cc2n1 (stereo unspecified)	3904
COc1ccc(-n2nnnc2CNC(=O)c2c(-c3ccccc3Cl)noc2C)cc1	3495
COc1ccc(CNC(=O)/C=C/[C@H]2O[C@@H](n3ccc(=O)[nH]c3=O)[C@H](O)[C@@H]2O)cc1	4402
O=S1(=O)CC(N2CCC(c3ccccc3)CC2)CN1Cc1ccccc1 (stereo unspecified)	6306
COc1ccc(S(=O)(=O)N(C)C[C@@H]2OCc3cnnn3CCCC(=O)N([C@H](C)CO)C[C@H]2C)cc1	3513
O=C(Nc1ccc(Cl)cc1)c1csc([C@@H]2C[C@H](O)[C@@H](CO)O2)n1	3916
CCCN(C)C1CN(Cc2cn(CCCC(=O)OC)nn2)S(=O)(=O)C1 (stereo unspecified)	5974
CC(C)(C)c1ccc(CC(=O)N2CCC2(C)C(=O)N2CCCCC2)cc1 (stereo unspecified)	3751
CS(=O)(=O)c1ccc(C(=O)OCC(=O)N2CCOCC2)cc1[N+](=O)[O-]	3690
O=C(NCCC1=CCCCC1)c1[nH]c(C(F)(F)F)nc1-c1ccccc1	6082
Cc1ccc(S(=O)(=O)N2C[C@H]3C(=O)C[C@@H](c4cccc(C)c4)N(S(=O)(=O)c4ccc(C)cc4)[C@H]3C[C@H]2c2ccccc2)cc1	5580
CCNC(=O)C1(C)CCN(Cc2ccc(-c3ccccc3)cc2)C1 (stereo unspecified)	3819
CCc1nc2c(OCc3ccc4c(c3)OCO4)cccn2c1N(C=O)Cc1ccccc1	3954
CCOC(=O)[C@]12CCC=C1N(CCC1=CCCCC1)C(=O)[C@H](CC(=O)N1CCOCC1)C2	5680
O=C(NCc1ccccc1)c1cc(C2CCCN(C(=O)c3cccs3)C2)on1 (stereo unspecified)	3090
Cc1cc(OCC(=O)OCC(=O)N2CCCCC2)ccc1Cl	3733
CC1(C(=O)NS(=O)(=O)c2ccc(Cl)s2)CCN1C(=O)Cc1ccc(-c2ccccc2)cc1 (stereo unspecified)	4067
CCOc1ccc(N2CC(C(=O)Nc3cccc(S(=O)(=O)N4CCOCC4)c3)CC2=O)cc1 (stereo unspecified)	3027
COc1cccc(C(C)(O)c2nc(-c3cccc(F)c3)cs2)c1 (stereo unspecified)	3582
COC(=O)[C@]12CCCCC=C1N(Cc1cccc3ccccc13)C(=O)[C@H](CC(=O)NCc1ccccc1)C2	5779

Structures above containing a CF3 group:
SMILES	Autofluor counter
CS(=O)(=O)c1ccc(Nc2nc(C(N)Cc3ccc(C(F)(F)F)cc3)cs2)cc1 (stereo unspecified)	3673
OC(c1ccc(Cl)c(Cl)c1)c1ncc(-c2ccccc2C(F)(F)F)[nH]1 (stereo unspecified)	4141
C[C@H](CO)N1C[C@H](C)[C@H](CN(C)Cc2cccc(C(F)(F)F)c2)OCc2ccccc2-c2c(n(C)c3ccccc23)C1=O	2879
O=C(NCCC1=CCCCC1)c1[nH]c(C(F)(F)F)nc1-c1ccccc1	6082

(listing goes on)
SMILES	Autofluor counter
Cc1ccccc1CN1C(=O)c2ccccc2C1c1nnnn1Cc1ccccc1 (stereo unspecified)	6651
COc1ccc2nc3n(c(=O)c2c1)-c1cc2ccccc2cc1C(=O)NC3Cc1ccc(O)cc1 (stereo unspecified)	3351
Cc1ccc(S(=O)(=O)N2CC3(O)CN(C(=O)OC(C)C)N(C(=O)OC(C)C)CC3(OC(=O)NC3CCCC3)C2)cc1 (stereo unspecified)	3004
COc1ccc(OC)c(C=C2CCc3ccccc3C2=O)c1	5916
CCCC(=O)Nc1ccc2c(c1)nc(CCN1CCC(C)CC1)n2C	3986
O=C(Nc1cccc(F)c1)Nc1nnc([C@@H]2C[C@H](O)[C@@H](CO)O2)s1	3431
COc1ccccc1S(=O)(=O)N(C)C[C@H]1Oc2cc(Br)ccc2S(=O)(=O)N([C@@H](C)CO)C[C@H]1C	3702
CSc1ccc(NC(=O)NN(c2ccccc2)C2CCS(=O)(=O)C2)cc1 (stereo unspecified)	3812
O=S(=O)(Nc1cccc(S(=O)(=O)N2CCCC2)c1)c1ccc(Br)cc1	4594
Cc1ccc(S(=O)(=O)N(CCc2ccccc2)c2ccc3c(c2)C2CC3CCN2C(=O)OCc2ccccc2)cc1 (stereo unspecified)	3584
CC1(C(=O)NS(=O)(=O)c2ccccc2Cl)CCN1C(=O)CCc1cccs1 (stereo unspecified)	2875
Cc1ccc([C@H]2N[C@]3(CCCN(Cc4ccccc4)C3=O)[C@H]3C(=O)N(C)C(=O)[C@@H]23)cc1	3754
CC(=O)Nc1cccc(-c2ccnc3c2CC(C(=O)NCc2cccs2)O3)c1 (stereo unspecified)	3784
CCn1c(SCC(=O)NCCc2ccc(OC)c(OC)c2)nc2c([nH]c3ccccc32)c1=O	2889
CCCS(=O)(=O)NC(=O)C1(C)CCCN(C(=O)c2ccc(C#N)cc2)C1 (stereo unspecified)	3462
CC(C)CNc1ncnc2c1ncn2[C@H]1CN(Cc2ccc3c(c2)OCO3)C[C@@H](CO)O1	2858
COc1ccc(CN2C[C@@H](CO)O[C@@H](n3cnc4c(NCc5ccncc5)ncnc43)C2)cc1	2766
O=C(NCc1ccc(F)cc1)c1cc(-c2ccccn2)nc2ccc(S(=O)(=O)N3CCOCC3)cc12	3489
CCOC(=O)C1=CCN(S(=O)(=O)c2ccc(F)cc2)C1c1ccccc1 (stereo unspecified)	5777
CC1(C(=O)NCc2ccco2)Cc2c(-c3cccc(C(F)(F)F)c3)ccnc2O1 (stereo unspecified)	3691
COc1ccc(NC(=O)c2cc(C3CCCCN3S(=O)(=O)c3c(C)noc3C)on2)c(C)c1 (stereo unspecified)	3811
COc1ccc(NC(=O)C2(C)Cc3c(-c4ccc(NC(C)=O)cc4)ccnc3O2)cn1 (stereo unspecified)	3779
O=Cc1ccc2c(c1)OCCOCCOCCOCCO2	3750
CC(=O)Nc1nn(CC(C)C)c2nc3ccc(C)cc3cc12	4648
CC1CCCC(NC(=O)CCN2C(=O)COc3ccccc32)C1C (stereo unspecified)	2750

Entries shown so far that contain a cyano group (2):
SMILES	Autofluor counter
Cc1c(C(=O)N(C)Cc2ccc(F)cc2)sc(=O)n1Cc1ccccc1C#N	4054
CCCS(=O)(=O)NC(=O)C1(C)CCCN(C(=O)c2ccc(C#N)cc2)C1 (stereo unspecified)	3462

(next part)
SMILES	Autofluor counter
CCOC(=O)CC1(C)c2nc(NC(C)=O)sc2Cc2sc(NC(C)=O)nc21	6214
COc1ccc(C(=O)C=Cc2ccc(OCc3ccccc3)c(OC)c2)cc1OC	2950
CC1(C(=O)NS(=O)(=O)c2ccccc2Cl)CCN1C(=O)C/C=C/c1ccccc1 (stereo unspecified)	3991
CCCN(C)C1CN(Cc2cn(CCCOC)nn2)S(=O)(=O)C1 (stereo unspecified)	5327
COc1ccc(C(=O)N2CCCC(c3cc(C(=O)NCc4ccc(F)cc4)no3)C2)cc1 (stereo unspecified)	2947
CCNC(=O)C1(C)CCN(C(=O)c2cccc(C(F)(F)F)c2)C1 (stereo unspecified)	3755
COc1cccc(-c2ccc(NC(=O)C3CCCN(Cc4ccccn4)C3)cc2)c1 (stereo unspecified)	3632
CC1(C(=O)Nc2ccc(Cl)cc2)Cc2c(-c3ccc4c(c3)OCO4)ccnc2O1 (stereo unspecified)	3469
CCCc1c(-c2ccc(Cl)cc2)ncn1Cc1ccccc1OC	6237
CCCCNC(=O)c1nc(C2CCN(S(=O)(=O)c3ccc(F)c(F)c3)CC2)oc1-c1ccccc1	4344
CCOC(=O)N1CCC2(CC1)NC(=O)c1ccccc1N2	3915
O=C(C[C@H]1C(=O)N(CCc2ccccc2)C[C@@H]1c1ccccc1)Nc1ccccc1	3553
N#Cc1ccccc1S(=O)(=O)NC(=O)[C@H]1O[C@@H](n2cnc3c(N)ncnc32)[C@H](O)[C@@H]1O	4218
COC[C@@H]1CCCN1c1ccc2c(c1)O[C@H](COCc1ccccc1)CN([C@H](C)c1ccccc1)S2(=O)=O	5655
C[C@@H]1CCCCO[C@@H](CN(C)C(=O)CCCN(C)C)[C@@H](C)CN([C@H](C)CO)C(=O)c2cc(N(C)C)ccc2O1	5797
CC(C)C[C@H]1CNC(=O)C(=O)N1C[C@H](Cc1ccc(O)cc1)NC(=O)Cc1ccccc1	4545
CN(C(=O)c1ccccc1)C(=O)c1ccccc1	3843
CCCc1c(C(=O)N/N=C/c2ccc3c(c2)OCO3)nnn1-c1nonc1N	3948
O=C(NCC(F)(F)F)c1cc2c(c(-c3cccc(-c4ccccc4F)c3)n1)[C@@H](CCO)N(C(=O)CC1CC1)C2	5774
COc1ncnc2c1ncn2CCCNCc1ccccc1	3405
COc1ccc(-c2nc3c4ccccc4ccn3c2Cc2cccc(Cl)c2)cc1OC	4777
NC(Cc1ccc(Cl)cc1)c1csc(Nc2ccc(S(N)(=O)=O)cc2)n1 (stereo unspecified)	4006
COc1ccc(Cl)cc1NC(=O)NNC(=O)C(=O)Nc1ccc(F)cc1	2966
CCCS(=O)(=O)NC(=O)C1(C)CCCN(C(=O)c2c(-c3ccccc3)noc2C)C1 (stereo unspecified)	4018
C[C@@H]1CN([C@H](C)CO)C(=O)CCCn2nncc2CO[C@@H]1CN(C)S(=O)(=O)c1cccs1	3015
CSCC[C@@H](CO)NC(=O)[C@H]1O[C@@H](n2ccc(N)nc2=O)[C@H](O)[C@@H]1O	5646
COc1ccccc1-c1csc(C(C)(O)c2cccc(F)c2)n1 (stereo unspecified)	2847
NC(c1ccc(F)c(F)c1)c1nc(-c2ccc3ccccc3c2)cs1 (stereo unspecified)	3771

Of the compounds above, 2 contain an aryl thioether with sulfur outside any ring.
SMILES	Autofluor counter
CSc1ccc(NC(=O)NN(c2ccccc2)C2CCS(=O)(=O)C2)cc1 (stereo unspecified)	3812
CCn1c(SCC(=O)NCCc2ccc(OC)c(OC)c2)nc2c([nH]c3ccccc32)c1=O	2889

5 entries from above, as a markdown table:
| molecule | Autofluor counter |
| --- | --- |
| O=C(NCC(F)(F)F)c1cc2c(c(-c3cccc(-c4ccccc4F)c3)n1)[C@@H](CCO)N(C(=O)CC1CC1)C2 | 5774 |
| COc1ncnc2c1ncn2CCCNCc1ccccc1 | 3405 |
| COc1ccc(-c2nc3c4ccccc4ccn3c2Cc2cccc(Cl)c2)cc1OC | 4777 |
| NC(Cc1ccc(Cl)cc1)c1csc(Nc2ccc(S(N)(=O)=O)cc2)n1 (stereo unspecified) | 4006 |
| COc1ccc(Cl)cc1NC(=O)NNC(=O)C(=O)Nc1ccc(F)cc1 | 2966 |
